PINK1 modulator – modulators of PINK1 expression | PINK1 immunofluorescence, high-content cytometry, 24 h | actives 0.2% (n = 410,000) | Potency, µM (top dose mostly 76.6 µM), for the others: top-dose activation (PINK1 increase), most hits filed as activators; active = well fitted activation curve with a large enough effect; inconclusive = small, poorly fitted or top-dose-only effect; inactive = flat fitted curve, though single readings scatter; cell line not stated here;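 further: potency means the concentration at half of the fitted maximal effect; % of control where 0% means no effect; nearly all actives have a fitted effect of over 65% in size; a mitochondrial uncoupler was the plate control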
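Compound titrations (5 concentrations, 24 h) on a stable cell line; DMSO and CCCP controls. Endpoint: fixed-cell PINK1 immunofluorescence with mitochondrial, cell and nuclear markers, scanned by microplate cytometer.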
D2 potentiator – potentiates the human D2 dopamine receptor allosterically | P14416 | DiscoveRx D2 beta-arrestin cells, luminescence, 90 min; 100% = 57 uM dopamine signal | potentiation, % (no concentration beside the values) | actives 0.23% (n = 360,000) | AID 624464; active = potentiation of 50% or more; inconclusive = 30% to 50%; inactive = 30% or less;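 further: compound concentration not given in the record; tested on top of an EC20 dose of dopamine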
Target sequence (P14416 whole entry, looked up): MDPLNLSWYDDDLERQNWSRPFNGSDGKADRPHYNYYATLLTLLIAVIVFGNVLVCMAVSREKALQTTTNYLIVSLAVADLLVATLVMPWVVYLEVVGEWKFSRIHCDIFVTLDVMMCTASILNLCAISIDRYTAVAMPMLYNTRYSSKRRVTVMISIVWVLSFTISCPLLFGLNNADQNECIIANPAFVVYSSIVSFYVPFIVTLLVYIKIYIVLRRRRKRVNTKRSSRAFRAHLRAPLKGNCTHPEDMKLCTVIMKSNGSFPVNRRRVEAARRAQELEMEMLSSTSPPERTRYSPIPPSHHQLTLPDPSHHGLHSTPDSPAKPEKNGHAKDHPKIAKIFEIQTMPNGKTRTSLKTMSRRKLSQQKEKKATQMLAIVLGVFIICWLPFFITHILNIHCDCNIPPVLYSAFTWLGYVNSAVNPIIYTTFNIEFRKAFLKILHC
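PathHunter D2 cells, attached overnight at 37 deg C, received compound in DMSO plus dopamine at EC20 (50 nM final) for 90 min at 37 deg C. Beta-arrestin recruitment was read as luminescence after 1 h with detection reagent at ambient temperature.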
TRPV1 potentiator – potentiators of human vanilloid receptor 1 (TRPV1) | Q8NER1 | TRPV1-expressing cells, Fluo-8 calcium influx, capsaicin EC20 potentiation; host cell line not named in the record; control for the full effect not named in the record | actives 0.02% (n = 320,000) | potentiation, % at 8.33 µM; active means potentiation above 80%; inconclusive means 30% to 80%; inactive means below 30%; further: 0% is about no effect
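Cells expressing TRPV1 were dye-loaded with Fluo-8 and read kinetically: 10 s baseline, 3 min after compound (agonist portion), then 2 min after EC20 capsaicin (allosteric enhancer portion). Calcium-bound dye fluorescence at 480/520 nm.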
D2 agonist – agonists of human D2 dopamine receptor (beta-arrestin); activation, % (no concentration beside the values); actives 0.084% (n = 360,000); DiscoveRx PathHunter D2 beta-arrestin, luminescence, 90 min; 100% = 57 uM dopamine signal; P14416; in the data active = activation above about 40%; inconclusive = about 15% to 40%; inactive = below about 15%; further: compound concentration not given in the record; the text of the record calls up to 30% inactive
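DiscoveRx PathHunter D2 beta-arrestin cells (2,100/well) attached overnight, then compound-stimulated 90 min at 37 C in HBSS/10 mM HEPES/0.1% Tween-20 buffer; beta-galactosidase complementation read by luminescence after 1 h at ambient temperature. Dopamine 57 uM final (EC100) as control.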
Sfp inh – Sfp phosphopantetheinyl transferase inhibition; actives 3.5% (n = 310,000); Biochemical Sfp PPTase activity, qHTS; AID 1490; Potency, µM, for the others: max response, negative = inhibition, hits mostly inhibitors; active means well fitted inhibition curve with a large enough effect; inconclusive means small, poorly fitted or top-dose-only effect, or another doubt; inactive means no such curve, though single readings can be large or run the other way;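 further: the enzyme is Sfp with the accession as filed and its product quenches rhodamine fluorescence; potency means the concentration at half of the fitted maximal effect; 0% = enzyme reaction without inhibitor and -100% = no enzyme wells; top concentration of the series not given in the record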
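With Hepes-Na pH 7.6 buffer containing 10 mM MgCl2, Sfp (15 nM) modified BHQ-2-YbbR (12.5 uM) using rhodamine-CoA (5 uM). Two reads 30 minutes apart at 525/598 nm yielded each well's rate.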
Six1-Eya2 blk – Six1/Eya2 interaction inhibition | Q15475+O00167 | AlphaScreen GST-Six1/His-Eya2 binding, biochemical; hits give low values; control for the full effect not named in the record | activity change, % (no concentration beside the values) | actives 0.56% (n = 360,000); in the data active = activity change below about -65%; inconclusive = about -30% to -65%; inactive = above about -30%; further: on the % scale 0 is the no-effect control and ±100 the full control effect; compound concentration not given in the record
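Six1/Eya2 binding was read as AlphaScreen signal after compounds were pinned into GST-Six1 plus His-tagged Eya2 (5X stock 250/500 nM) in pH 8.0 Tris/NaCl/TCEP buffer, beads added, then incubated 1 h, 37 C, dark.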
CtBP-E1A blk – blocks the CtBP interaction with E1A; actives 0.49% (n = 340,000); AlphaScreen GST-E1A/His-CtBP binding, 1536-well; hits give low values; control for the full effect not named in the record; activity change, % (test concentration not listed); AID 651724; in the data active means activity change below about -65%; inconclusive means about -30% to -65%; inactive means above about -30%; further: on the % scale 0 is the no-effect control and ±100 the full control effect; compound concentration not given in the record
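Protein mix (5X: 125 nM each GST-E1A, His-CtBP) was incubated with pinned compound 2 h at 37 deg C in dark, in 50 mM Tris pH 8.0 buffer with 300 mM NaCl. Glutathione donor and nickel acceptor beads followed; AlphaScreen signal read after 1 h.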
* marks the source's active call; other numbers are inactive results; ? = inconclusive; / = not tested or not shown; [ ] = remark or other dose. Hits appear at their usual frequency. About 3.7% of those tested had a hit in this group.

Below each SMILES: TRPV1 potentiator	D2 agonist	Six1-Eya2 blk	CtBP-E1A blk	D2 potentiator	PINK1 modulator	Sfp inh
1) O=C(O)CC1(c2ccccc2)C(=O)c2ccccc2C1=O
 : 5.8	-1.9	2.8	3.7	20.0	0.8%	-7.2%
2) CCN(CC)CCCNC(=O)C1CCC(=O)N(c2ccc(OC)cc2)C1c1ccc(F)cc1 (stereo not given)
 : -2.1	-3.3	-16.2	1.8	-11.0	-0.7%	-3.5%
3) O=[N+]([O-])c1ccccc1S(=O)(=O)Nc1ccc2c(c1)OCCO2
 : ?	5.2	-11.1	/	-0.4	1.8%	15.2%
4) CN(C)c1nc(NCc2ccccc2)nc(N/N=C/c2ccc3c(c2)OCO3)n1
 : -3.4	-1.3	-14.2	-12.4	-33.9	-0.6%	-9.0%
5) O=C(Oc1c(-c2ccco2)oc2ccccc2c1=O)c1cccnc1
 : -10.5	-1.7	-9.9	0.9	-17.3	-1.8%	-3.4%
6) CC(C)CC(NC(N)=O)C(=O)Nc1cccc([N+](=O)[O-])c1 (stereo not given)
 : 0.1	1.2	-2.1	-0.3	-4.9	-1.1%	-1.5%
7) Cc1cc(NC(=O)C2C3C(=O)N(Cc4ccc(Cl)cc4)C(C(=O)NCc4ccccc4)C34C=CC2(C)O4)no1 (stereo not given)
 : 7.9	-3.3	0.0	-3.4	0.4	0.2%	20.2%
8) Cc1ccc(OCC(=O)NCc2ccccn2)c(Br)c1
 : -20.5	-2.3	6.2	-1.3	16.4	-0.9%	3.9%
9) Cc1ccn2cc(CNS(=O)(=O)c3ccc4c(c3)OCCO4)nc2c1
 : 15.3	-2.7	-2.9	1.1	-10.1	-0.9%	5.0%
10) Cc1ccn2c(Nc3ccccc3C)c(-c3ccccn3)nc2c1
 : 0.5	-6.4	-82.3*	-93.3*	-40.6	?	-8.2%
11) Fc1ccc(NC(=S)NN=C2CCCCCC2)cc1
 : 1.0	0.0	-4.1	-10.5	-7.1	1.3%[38.3 µM]	-29.3%
12) CC(C)CN1CCC1(C)C(=O)Nc1ccc(OC(F)F)cc1 (stereo not given)
 : /	-4.4	13.0	-0.1	-5.1	0.9%	/
13) COc1ccc(/C=N/Nc2nnc(C)n2N)cc1OC(C)=O
 : 4.4	0.2	2.9	-5.0	9.1	0.2%	-20.4%
14) Cc1cc(NC(=O)Cn2c(=O)c3c(ncn3CC(C)C)n(Cc3ccccc3)c2=O)no1
 : -5.6	-1.3	-1.8	7.2	-11.4	0.8%	3.2%
15) Cc1cc(N2CCC(C(=O)N3CCN(c4cccc(C)c4C)CC3)CC2)n2ncnc2n1
 : -15.3	-0.5	2.4	-18.6	-8.1	18.0%[38.3 µM]	-6.9%
16) C/C(=N\Nc1nncc2ccccc12)c1cccc(OC(F)F)c1
 : 1.6	0.4	-16.6	-6.6	-3.3	8.7%	1.0%
17) O=C(C1CCC(CNS(=O)(=O)c2ccccc2)CC1)N1CCOCC1 (stereo not given)
 : 7.6	-7.1	22.2	/	-1.5	-0.6%	13.1%
18) O=C(NCc1ccccn1)c1ccc(Cl)c(NC2=NC3CS(=O)(=O)CC3S2)c1 (stereo not given)
 : 20.8	0.7	-0.6	3.0	4.5	1.3%	5.3%
19) CC1CN(CC(=O)Nc2ccc(S(N)(=O)=O)cc2)CC(C)O1 (stereo not given)
 : 7.8	-4.7	-14.3	-7.3	-2.1	-0.6%	9.6%
20) Cc1ccc(-c2c(NC(=O)c3ccco3)oc3ccccc3c2=O)cc1
 : -3.9	-6.1	6.3	-4.1	-10.0	-1.0%	-15.8%
21) Cc1ccc(N(CC(=O)NC(C)c2ccccc2)S(=O)(=O)c2cccs2)cc1 (stereo not given)
 : -5.1	-1.2	4.5	3.2	-6.3	1.1%[38.3 µM]	25.2%
22) COc1ccc(Cn2cnc3c(N)c(C)c(C)cc32)cc1
 : ?	3.9	-9.8	-2.2	-2.5	-1.4%	0.7%
23) COc1ccc(C(=O)Nc2ccnn2C2CCN(C(=O)CCC(F)(F)F)CC2)cc1
 : 3.2	-1.1	-5.2	-18.0	-7.7	-0.5%	10.0%
24) O=C(CSc1nnc(NC(=O)C2CC2)s1)NCc1ccccc1
 : 0.7	-4.6	3.3	0.0	-2.8	4.3%	11.3%
25) COc1ccc(CCC(=O)Nc2cccc(S(=O)(=O)N3CCCCCC3)c2)cc1OC
 : -10.6	-5.0	-8.2	-10.3	0.0	0.3%	/
26) O=C(COC(=O)c1cc(S(=O)(=O)N2CCOCC2)ccc1O)Nc1cc(S(=O)(=O)N2CCCC2)ccc1Cl
 : ?	-1.4	5.5	-12.8	1.9	-1.4%	14.4%
27) Cc1cccc(NC(=O)N2CCN(Cc3ccc4c(c3)OCO4)CC2)c1C
 : -20.7	-4.2	1.2	/	-13.6	0.3%	3.5%
28) CCOC(=O)C1CCCN(C(=O)C2COc3ccccc3O2)C1 (stereo not given)
 : /	-2.7	5.1	5.8	1.6	-3.0%	/
29) O=C(NCc1ccccc1)C1=C[C@H](c2csc3ccccc23)C[C@H](OCCCCO)O1
 : -2.1	-3.4	-8.2	1.7	-27.7	0.0%	-9.3%
30) COCc1c(C(=O)N(C)Cc2ccccc2N2CCCC2)oc2ccccc12
 : 4.0	4.9	-20.7	-29.2	-11.8	11.9%	/
31) CCOC(=O)c1ccc(N=c2scc(C)n2CC)cc1
 : -13.2	3.1	-25.5	-23.3	-1.4	4.6%	9.4%
32) Cc1ccc(S(=O)(=O)/N=C(/NNC(=O)c2cccc(Cl)c2)c2ccccc2)cc1
 : 10.5	-0.4	12.4	7.2	-5.7	-2.3%	17.4%
33) COc1ccc(C(C)(C)C)cc1NC(=O)CCCN1C(=O)NC(C)(C)C1=O
 : -5.7	1.9	2.9	3.4	-2.4	-0.1%	/
34) Cc1cccc(S(=O)(=O)NC(=O)C2(C)CCN2C(=O)C/C=C/c2ccccc2)c1 (stereo not given)
 : /	2.0	1.2	6.1	-0.6	-0.2%	/
35) CC(NC(=O)c1ccc(Br)cc1)c1ccc2c(c1)CCCC2 (stereo not given)
 : 8.3	4.5	12.9	11.0	-3.4	17.3%	17.4%
36) O=C(COc1ccc2c3c(c(=O)oc2c1)CCC3)N1CCCCC1
 : 2.3	-3.2	-1.2	9.7	1.2	1.1%	13.6%
37) Cc1cccc2nc(CSCc3ccco3)cn12
 : -0.1	-5.1	-12.7	-13.7	-2.0	3.9%	31.6µM*
38) O=S(=O)(NCc1ccc(F)cc1)c1cccc(S(=O)(=O)N2CCOCC2)c1
 : 2.7	1.2	3.1	7.2	-2.5	10.8%[38.3 µM]	21.1%
39) CC1(Cc2ccc(F)cc2)C(=O)Nc2ccc(-c3cccnc3)cc21 (stereo not given)
 : /	4.9	-2.5	0.0	-8.2	-0.5%	/
40) O=C(NCCCNC(=O)c1ccccn1)c1ccc(Br)cc1
 : -0.9	-1.8	4.4	2.3	10.8	0.7%	10.0%
41) O=C(Cc1csc(Nc2nc(=S)[nH]c3ccccc23)n1)NCc1cccc(Cl)c1
 : /	-0.3	-7.3	4.0	-3.0	?	-21.4%
42) CN(Cc1ccccc1)C(=O)c1ncn2c1C(=O)N(C)CC2
 : /	-1.0	22.8	6.5	-0.4	-1.4%	/
43) COc1cc(C)c(C(=O)Oc2cc(C)c(C(=O)O)c(O)c2C)c(O)c1C
 : /	-2.8	-7.7	-9.6	-25.0	3.3%	/
44) CCCCN(C(=O)c1cc(S(=O)(=O)N2CCOCC2)ccc1N1CCOCC1)c1ccccc1
 : /	-1.6	12.2	-1.9	-26.4	0.3%	/
45) Cc1cc(Cl)ccc1NNC(=O)CCc1ccccc1
 : -24.4	-2.0	3.9	0.4	-8.8	0.4%	5.9%
46) CCOC(=O)C1=C(C)OC(N)=C(C(=O)OCC)C1c1cccnc1 (stereo not given)
 : -5.1	-1.5	0.3	7.1	0.8	-1.7%[38.3 µM]	-0.7%
47) CCCOc1cc(CN2CCCCC2)cc(C(C)=O)c1
 : 4.7	1.8	-0.1	4.7	-27.2	-0.6%	5.8%
48) Clc1ccc(-n2cccc2CN2CCc3c([nH]c4ccccc34)C2c2ccccn2)nc1 (stereo not given)
 : -0.2	-3.3	-0.8	-25.3	-16.3	1.0%	-13.1%
49) COc1ccc(OC)c(S(=O)(=O)N2CCC(C(=O)NC3CC3)CC2)c1
 : 11.4	-6.0	11.9	1.3	-3.2	0.4%	7.7%
50) Cc1cc(C)n(-c2ccc(C(=O)N3CCN(S(=O)(=O)c4ccc(C(C)C)cc4)CC3)cc2)n1
 : 0.7	-0.7	0.0	-19.5	-0.1	2.0%	/

(further entries)
Below each SMILES: TRPV1 potentiator	D2 agonist	Six1-Eya2 blk	CtBP-E1A blk	D2 potentiator	PINK1 modulator	Sfp inh
51) O=C(c1ccc(F)cc1)N1CCN(c2cc(N3CCCCC3)c(F)cc2[N+](=O)[O-])CC1
 : -4.8	-2.7	?	?	-19.4	-4.1%[38.3 µM]	-0.1%
52) CC1(c2ccc(OC(F)F)cc2)NC(=O)N(CC(=O)Nc2ccc(N3CCCCC3)cc2)C1=O (stereo not given)
 : -3.7	-1.5	-21.0	-14.5	6.7	13.3%	/
53) COc1cccc(Nc2nc(C(N)C3CCCCC3)cs2)n1 (stereo not given)
 : /	-7.3	-10.5	-15.9	-17.6	-1.2%	/
54) Cc1cccc(NC(=O)CCNC(=O)c2ccco2)c1
 : 7.4	-1.1	3.0	-22.7	-6.3	-1.5%	19.5%
55) CC1=C(/C=C/C(C)=N\NC(=O)c2ccncc2)C(C)(C)CCC1
 : -6.8	-8.9	3.1	-21.6	-7.0	12.1%	-8.0%
56) CCOC(=O)C1=C(C)NC(C)=C(C(=O)OCC)C1c1sccc1C
 : 17.3	-2.2	15.0	3.6	0.3	4.7%	10.8%
57) COC(=O)Nc1ccc(S(=O)(=O)N2CCCC(C(=O)NC3CCS(=O)(=O)C3)C2)cc1 (stereo not given)
 : -4.1	-8.5	-1.8	8.7	-0.2	0.0%	-11.8%
58) Cc1nc2ccc(NS(=O)(=O)c3ccccc3F)cc2s1
 : -1.6	-3.7	-4.7	/	-11.9	-0.3%	/
